# High-throughput results (PubChem BioAssay)
# eIF4H inh – human eIF4H binding inhibitors, primary screen, translation initiation inhibitor project, biochemical, uHTS, fluorescence polarization; eIF4H fluorescence polarization binding assay; inhibition, % at 35 µM; 290,000 tested, 0.94% active; AID 2012, 2009;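 active = 50% or more with normal probe brightness, or confirmed in later tests; inconclusive = above 50% with abnormal brightness, or retests that disagree; inactive = below 50% or failed in later tests; about a fifth of its hits are not listed in these tables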;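 also: calls also rest on retests at 20 µM and on dose response follow-up; 0% = protein and probe with vehicle and 100% = probe without protein; strong numbers were not always called active; many hits fall short of the cut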
# UUG fidelity – modulators of yeast start codon fidelity, primary screen, whole organism, S. cerevisiae, single point, plate reader; S. cerevisiae UUG-firefly luciferase reporter, luminescence/redox ratio; activity score, % at 18.7 µM; 350,000 tested, 0.13% active;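 active = replicate mean at a twofold rise or more, about +100% in these data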;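 also: firefly luciferase made from a UUG start codon reports start codon fidelity; reporter light over untreated wells divided by growth signal over untreated wells; some hits fall short of that in this replicate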
# Rce1 inhib – yeast Rce1p protease inhibitors, primary screen, biochemical, fluorescence, cell-free homogeneous | calls only | 290,000 tested, 0.27% active | CAAX prenyl protease 2 (Saccharomyces cerevisiae (strain ATCC 204508 / S288c)), Q03530 | yeast membranes, quenched prenylated peptide cleavage fluorescence | AID 2563, 2010;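 active = fall in fluorescence gain of 50% or more versus controls, with final raw signal at or below 3038400; inconclusive = same 50% fall but final raw signal above 3038400; inactive = fall in fluorescence gain under 50%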;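 also: plate controls were neutral control wells for no effect and wells lacking membranes for full effect; tested at 10 µM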
# Target sequence (Q03530 whole entry, looked up): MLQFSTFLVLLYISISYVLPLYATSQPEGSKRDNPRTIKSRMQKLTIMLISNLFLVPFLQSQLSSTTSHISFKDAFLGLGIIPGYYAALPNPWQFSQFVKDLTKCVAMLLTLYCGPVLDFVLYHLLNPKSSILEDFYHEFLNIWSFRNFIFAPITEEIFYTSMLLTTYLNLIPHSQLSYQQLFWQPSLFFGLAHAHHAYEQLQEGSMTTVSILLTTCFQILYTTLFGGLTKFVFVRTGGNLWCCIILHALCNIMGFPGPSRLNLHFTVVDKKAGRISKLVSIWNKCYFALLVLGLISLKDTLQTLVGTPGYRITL
# MT1-MMP act inh – blockers of MT1-MMP proenzyme processing, primary screen, HT1080 RFP-PRO-GFP cells, GFP/RFP fluorescence. Matrix metalloproteinase-14 (Homo sapiens), P50281. GFP/RFP ratio fluorescence, overnight; percent of plate control window, DMSO zero. GFP/RFP ratio change, % at 20 µM. 360,000 tested, 0.061% active. AID 651647, 2012;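 active = GFP/RFP ratio change of at least 30% with cell ATP level not reduced by more than half and red fluorescence within 50% of control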; also: strong numbers were not always called active
#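 Read-out: GFP/RFP fluorescence ratio; Test system: RFP-PRO-GFP reporter HT1080 cells; Compound dosing: single-point 20 µM compound, 1% DMSO; Times: overnight compound exposure at 37 °C.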
# PABP polyA inh – PABP poly(A) RNA binding inhibitors, primary screen, biochemical, fluorescence polarization, uHTS; Polyadenylate-binding protein 1 (Homo sapiens), P11940; inhibition, % at 35 µM; 290,000 tested, 1% active;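 active = 50% or more with normal probe brightness, or confirmed in later tests; inconclusive = above 50% with abnormal brightness, or retests that disagree; inactive = below 50% or failed in later tests; about a fifth of its hits are not listed in these tables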;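 also: calls also rest on retests at 20 µM and on dose response follow-up; controls were probe without protein and protein plus probe with vehicle; some compounds called inactive have numbers as strong as hits; many hits fall short of the cut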
# Target sequence (P11940 whole entry, looked up): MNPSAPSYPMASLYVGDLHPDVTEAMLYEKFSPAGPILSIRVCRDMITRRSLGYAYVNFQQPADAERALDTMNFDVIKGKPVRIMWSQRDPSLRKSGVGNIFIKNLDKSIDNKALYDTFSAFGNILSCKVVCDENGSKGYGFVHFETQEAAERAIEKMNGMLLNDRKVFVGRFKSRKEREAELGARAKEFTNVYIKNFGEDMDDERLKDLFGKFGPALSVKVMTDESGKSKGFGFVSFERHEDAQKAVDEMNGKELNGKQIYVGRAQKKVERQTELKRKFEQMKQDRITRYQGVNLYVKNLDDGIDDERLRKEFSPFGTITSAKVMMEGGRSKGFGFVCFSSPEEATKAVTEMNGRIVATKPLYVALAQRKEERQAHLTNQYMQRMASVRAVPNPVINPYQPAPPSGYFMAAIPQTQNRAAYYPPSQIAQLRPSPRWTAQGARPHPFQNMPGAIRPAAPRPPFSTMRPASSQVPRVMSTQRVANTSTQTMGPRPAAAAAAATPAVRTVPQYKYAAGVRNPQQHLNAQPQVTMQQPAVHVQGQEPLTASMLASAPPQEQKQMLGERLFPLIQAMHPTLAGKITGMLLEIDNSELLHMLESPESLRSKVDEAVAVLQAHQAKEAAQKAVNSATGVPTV
# CSC inhib – cancer stem cell viability inhibitors, primary screen, luminescence; 300,000 tested, 1.1% active; inhibition, % at 7.5 µM; cancer stem cell-like cells viability;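 active = mean at 75% or more and at least half the replicates too; inconclusive = mean and replicates disagree; tested in HMLE shEcad cells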;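 also: 0% = median of negative and 100% = median of positive control wells; the first replicate is given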
# Env fusion inh – inhibitors of HIV-1 Env-driven cell-cell fusion, primary screen, HeLa-JRFL effector, CEM21 target cells, luciferase; 360,000 tested, 1.1% active; inhibition, % at 12.3 µM;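 active = mean replicate inhibition score of at least 50 and every replicate individually at or above 50; inconclusive = only one of the two criteria met; inactive = mean below 50 and not all replicates reaching 50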;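 also: 0% = plate neutral controls and 100% = maraviroc near 300 nM; one replicate is shown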
# MT1-MMP act inh RFP – recorded beside MT1-MMP act inh, whose call it bears; RFP signal change, %; measured here: RFP expression control read;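 0 = vehicle wells; hits needed this value within 50% of zero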
# The depositor's hits bear a star; i = inactive; ? = inconclusive; . = no result given; & = joins results of further samples; [ ] = another dose, or the depositor's remark.
# Results follow in this order: eIF4H inh, UUG fidelity, Rce1 inhib, MT1-MMP act inh, MT1-MMP act inh RFP, PABP polyA inh, CSC inhib, Env fusion inh
> O=S(=O)(/C=C/c1ccccc1)N1CCN(Cc2ccc3c(c2)OCO3)CC1
    -4, ., i, 0, -2, 1, 5, 2
> CCC(C)C(=O)Nc1nc2c(s1)C(=O)CC(C)(C)C2 (configuration not stated)
    -14, -14, i, -1, 3, -3, -10, -6
> O=C(Nc1cc(Cl)ccc1N1CCOCC1)c1ccc(=O)[nH]c1
    ., -4, ., -1, -2, ., -5, 11
> O=C(Nc1ccc(Cl)cc1)c1ccc2nsnc2c1
    8, -2, i, 0, -4, -3, -1, -47
> O=C(NCCCN1CCCC1=O)C1CCN(S(=O)(=O)c2cccc(C(F)(F)F)c2)CC1
    ., -7, i, 1, 3, ., ., -68
> C[C@@H]1CCCCO[C@H](CN(C)Cc2ccc(Cl)c(Cl)c2)[C@H](C)CN([C@@H](C)CO)C(=O)c2cc(NC(=O)Nc3ccc(F)cc3)ccc2O1
    ., 8&5, ., 4, -15, ., ., -47
> CCCc1cc(=O)oc2cc(OCC(=O)N3CCC(C(N)=O)CC3)ccc12
    7, -21, ., 2, -2, 4, -6, .
> CCN1C(=O)[C@H]2[C@@H](c3ccc(C)cc3)N3C(=O)N(c4ccc(OC)cc4)C(=O)[C@@]3(CC)[C@H]2C1=O
    ., -4, i, 2, -4, ., -7, -8
> C=CCn1c(-c2cnn(-c3ccccc3)c2N)n[nH]c1=S
    -1, -18, i, 5, -1, 2, -14, ?
> COCCn1cnc2c(c1=O)c1nc3ccccc3nc1n2/N=C/c1ccco1
    10, ., i, 1, 1, -1, ., -1
> COCCNC(=O)C1(C)Cc2c(-c3cccc(NC(C)=O)c3)ccnc2O1 (configuration not stated)
    ., -5, ., 0, -4, ., ., -131
> C=CCn1c(O)c2ccc(C(=O)N=NC(=O)COc3ccccc3F)cc2c1O
    ., -1, i, 1, 4, ., -2, -9
> COc1cc(C(=O)NCCCNc2nc3c(C)cc(C)cc3cc2C#N)cc(OC)c1OC
    0, ., i, -6, 0, -1, -2, -3
> COc1ccc(NS(=O)(=O)c2cc(NC(=O)C3CCCO3)ccc2N2CCCCC2)cc1 (configuration not stated)
    -2, -8, i, -2, -5, -14, ., 7
> O=C1c2ccccc2C(=O)N1CC(O)COc1ccc(Cl)cc1 (configuration not stated)
    4, -14, i, 1, 3, -2, -5, -8
> COc1ccc(-n2nnnc2-c2cnc(N3CCCC3)nc2C(F)(F)F)cc1
    -4, 11, i, 1, -15, 4, ., 72*
> O=C(CCNc1cccc(C(F)(F)F)c1)c1ccco1
    -3, -8, i, -5, 1, 0, -7, -61
> Cc1ccc(S(=O)(=O)Nc2ccc3c(c2)C(=O)N([C@H](C)CO)C[C@H](C)[C@@H](CN(C)Cc2ccc(-c4ccccc4)cc2)O3)cc1
    ., 13, ., 0, -2, ., 62, .
> COC(=O)c1ccc(-c2csc(NC(=O)c3c(C)noc3C)n2)cc1
    ., -1, ., 5, -1, ., ., -6
> Cc1cc(Cl)n2c(nc3cc(F)c(F)cc32)c1C#N
    2, ., i, 9, 4, 22, ., -292
> CC(C)(C)CN1CCNC(=O)C1CC(=O)N1CCC(C(=O)N2CCOCC2)CC1 (configuration not stated)
    3, ., i, 1, 3, -1, -11, -1
> COc1ccc(OC(C)C(=O)N2CC(C)OC(C)C2)cc1 (configuration not stated)
    2, 5, i, 18, -6, 5, -2, .
> CCOc1cc(C(=O)Nc2nnc(C)s2)cc(OCC)c1OCC
    -19, 24, i, 2, 2, -22, -22, -45
> COc1ccc(-c2cc(C(=O)Nc3cc(C)nn3-c3ccccc3)no2)cc1
    -6, -3, i, -2, 1, 2, -4, -29
> O=[N+]([O-])c1ccc(C[n+]2cccc(O)c2)cc1
    ., -19, i, 2, 7, ., -5, -9
> Cc1[nH]n(C2=NCCS2)c(=O)c1N=Nc1ccccc1
    1, ., i, 9, 9, 11, -5, -19
> CCc1cc2cc(C(=O)Nc3ccccc3F)sc2s1
    -7, 8, i, 25, 4, -1, -1, -445
> Cc1cc(C(=O)NCc2cc(C)n(C)n2)sc1-c1ccccc1
    -7, -5, i, -7, -16, 2, -10, 56*
> Fc1cc(Cl)ccc1NC1=NCCCCC1
    -2, -14, i, 0, 3, 7, -6, -91
> CCOc1ccc(NCc2nnc(SCc3ccc(Cl)cc3)n2-c2ccccc2)cc1
    -3, -21, i, 1, -1, 2, -7, -36
> COc1ccc(CCNC(=O)CN(Cc2ccc(Cl)cc2)S(C)(=O)=O)cc1
    -10, 12, i, 1, -5, -7, -17, 13
> COc1ccc(CCNc2oc(-c3ccccc3OC)nc2C#N)cc1OC
    2, -6, i, 2, 1, 4, -17, .
> CC(C)c1ccc(NC(=O)[C@H](Cc2c[nH]c3ccccc23)NC(=O)[C@@H]2Cc3ccccc3CN2)cc1
    -15, 9, ., -2, -1, -18, -12, .
> O=C(COc1cc2oc(=O)c3c(c2cc1Cl)CCC3)NCCCn1ccnc1
    -1, -8, i, 4, 4, 3, -11, -8
> O=C(O)C1=C[C@@H](c2csc3ccccc23)C[C@@H](OCc2ccc(CO)cc2)O1
    3, -4&0, i, 6, 2, 8, -14, 13[16.7 µM]
> CCCN1CCC(=O)N([C@H](COc2ccccc2)c2ccccc2)CC1
    -4, 28, i, 0, 3, 5, 4, 15
> O=C(CCC(=O)c1ccc(Br)cc1)Nc1ccc(F)cc1
    11, -4, i, 4, 6, -6, -16, 6
> Cc1cc(/C=C2/NC(=O)N(Cc3ccccc3F)C2=O)c(C)n1C
    17, -9, ., -6, 4, 3, -4, -7
> Cn1c(Cn2c(=O)sc3ccccc32)nnc1SCC(=O)N1CCN(c2ccccc2)CC1
    12, 10, i, 4, 3, -4, -6, 11
> COc1ccc(CCn2c(=N)c(C(=O)NCc3ccco3)cc3c(=O)n4cccc(C)c4nc32)cc1
    10, -22, i, -3, -7, 10, -8, .
> COc1ccc2oc(C(=O)Nc3nc(C)cs3)c(C)c2c1
    ., -24, ., -4, 2, ., 2, .
> CCCCCCCCCCCCN1C(=O)CSC1c1cccnc1 (configuration not stated)
    -11, 5, i, 3, -11, -5, 39, 28
> C[C@H](NS(=O)(=O)c1ccc(Cl)cc1)C(=O)OCC(=O)NCCc1ccc(S(N)(=O)=O)cc1
    ., 2, ., -5, 1, ., ., 2
> Cc1ccc(NC(=O)CSCC(=O)NNC(=O)c2ccoc2C)cc1
    ., -25, i, 0, 2, ., -5, -2
> Cn1cc(-c2coc3c(C(=O)NCc4cccc(Cl)c4)cccc23)cn1
    ., 17, ., 1, -15, ., ., 37
> COC(=O)CSc1ncnc2c(C)csc12
    -3, -25, i, -1, 1, -8, -3, 3
> COc1ccccc1NC(=O)Nc1nc(CC(=O)Nc2ccc(N(C)C)cc2)cs1
    ., -14, i, -1, -8, ., -15, -26
> Cc1c2ccncc2cc2c1[nH]c1ccccc12
    ., 12, ., -32, -7, ., ., 27
> COC(=O)CC1C(=O)NCCN1C(=O)c1ccc([N+](=O)[O-])cc1 (configuration not stated)
    8, 2, i, -1, 0, 11, -10, 2
> NC(=O)CC(NC(=O)Cc1ccc(Cl)cc1)c1ccc(NCCOc2ccccc2)c([N+](=O)[O-])c1 (configuration not stated)
    -4, -7, i, 6, -2, -2, 13, 24
> O=C(NCc1ccccc1)c1ccc(-c2ccc(F)c(F)c2)c2ccoc12
    ., -8, ., -4, -8, ., ., 8
> Cc1ccc(C(=O)Nc2ccc(CN3CCCCC3)cc2)c(C)c1
    0, ., i, -2, 3, 4, 2, -23
> CN(C)CCNC(=O)c1ccc(-c2nn(C)c(=O)c3ccccc23)cc1
    14, ., i, -2, -1, -3, -3, -73
> COc1ccc(N2C(=O)CCC(C(=O)c3ccccc3)=C2C)cc1
    1, -8, ., 1, -3, 0, -9, 26
> CCCN(Cc1nnc(-c2ccccc2Cl)o1)C(=O)c1oc2ccccc2c1C
    ., -14, i, -4, -6, ., 1, 2
> COCC(=O)Nc1c(C(=O)N2CCCC2)oc2ccccc12
    6, ., i, 2, 2, 3, -16, 3
> NNc1nc(-c2ccccc2)cc(-c2ccc(Br)cc2)n1
    7, -17, i, 1, -1, -1, 53, 3
> COCCNC(=O)CSc1nccn1Cc1ccc2c(c1)OCO2
    -8, ., i, -3, 0, -3, -9, -3
> OCCc1ccc(O)c(-n2nc3ccccc3n2)c1
    -4, -13, i, -5, 0, -4, 9, -83
> CCN(CC)CCNC(=O)c1cc(Sc2nnc(C)s2)nc2ccccc12
    2, -14, i, 2, 5, 4, -6, -13

# 7 compounds from above, ordered by length of the SMILES, smallest number first.
# Results follow in this order: eIF4H inh, UUG fidelity, Rce1 inhib, MT1-MMP act inh, MT1-MMP act inh RFP, PABP polyA inh, CSC inhib, Env fusion inh
> Cc1c2ccncc2cc2c1[nH]c1ccccc12
    ., 12, ., -32, -7, ., ., 27
> COCC(=O)Nc1c(C(=O)N2CCCC2)oc2ccccc12
    6, ., i, 2, 2, 3, -16, 3
> COc1ccc(N2C(=O)CCC(C(=O)c3ccccc3)=C2C)cc1
    1, -8, ., 1, -3, 0, -9, 26
> CCN(CC)CCNC(=O)c1cc(Sc2nnc(C)s2)nc2ccccc12
    2, -14, i, 2, 5, 4, -6, -13
> CCCN(Cc1nnc(-c2ccccc2Cl)o1)C(=O)c1oc2ccccc2c1C
    ., -14, i, -4, -6, ., 1, 2
> COC(=O)CC1C(=O)NCCN1C(=O)c1ccc([N+](=O)[O-])cc1 (configuration not stated)
    8, 2, i, -1, 0, 11, -10, 2
> NC(=O)CC(NC(=O)Cc1ccc(Cl)cc1)c1ccc(NCCOc2ccccc2)c([N+](=O)[O-])c1 (configuration not stated)
    -4, -7, i, 6, -2, -2, 13, 24

# Molecules listed so far that contain bromine (2):
# Results follow in this order: eIF4H inh, UUG fidelity, Rce1 inhib, MT1-MMP act inh, MT1-MMP act inh RFP, PABP polyA inh, CSC inhib, Env fusion inh
> O=C(CCC(=O)c1ccc(Br)cc1)Nc1ccc(F)cc1
    11, -4, i, 4, 6, -6, -16, 6
> NNc1nc(-c2ccccc2)cc(-c2ccc(Br)cc2)n1
    7, -17, i, 1, -1, -1, 53, 3

# The list continues.
# Results follow in this order: eIF4H inh, UUG fidelity, Rce1 inhib, MT1-MMP act inh, MT1-MMP act inh RFP, PABP polyA inh, CSC inhib, Env fusion inh
> O=C(COC(=O)CCC1CCCCC1)Nc1ccc(OC(F)F)cc1
    2, -13, ., 3, 6, -3, -10, -24
> CC(C)(C)c1ccc(CS(=O)(=O)CC2(O)CCN(C(=O)c3cccc(C(F)(F)F)c3)CC2)cc1
    -9, -17, i, 1, -1, -2, -7, 3
> Cc1ccc2nc(C3CCCCC3)c(CC(C)(C)C)n2c1
    ., -4, ., -5, -8, ., ., -65
> Cc1cccc(OCCOC(=O)c2c(-c3ccccc3)noc2C)c1
    2, -9, i, -4, -11, 11, ., 24
> CCCOc1ccc(N2C(=O)CC(NCC(=O)OCC)C2=O)cc1 (configuration not stated)
    ., -2, i, 1, 3, ., 0, -3
> O=C(NCC1COc2ccccc2O1)c1ccc(Cl)c(S(=O)(=O)N2CCOCC2)c1 (configuration not stated)
    ., -6, ., 2, -9, ., -9, 7
> CC(=O)Nc1cccc(-c2cc(NC(C)=O)c3ncc(-c4cccc(C(F)(F)F)c4)n3c2)c1
    ., -28, ., -7, -5, ., ., 0
